KCNQ2 enhance – potentiators of rat KCNQ2 potassium channel; Potassium voltage-gated channel subfamily KQT member 2 (Rattus norvegicus), O88943; CHO-K1 KCNQ2, FluxOR thallium flux fluorescence; stronger effect = higher value; B-score at 10 µM; actives 0.54% (n = 310,000); AID 2239, 2010;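 active means fluorescence ratio B-score at least 3 SD of library B-scores, with initial fluorescence B-score within 3 SD, cut at about 5.3 in these data; same plate scores as AID 2156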;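 further: B-score of peak minus minimum over baseline fluorescence ratio after K+ and Tl+ stimulus; positive B-score means potentiation of KCNQ2 with more thallium influx and brighter signal; only the inactives scoring about 0 or higher are listed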
Target sequence (O88943 whole entry, looked up): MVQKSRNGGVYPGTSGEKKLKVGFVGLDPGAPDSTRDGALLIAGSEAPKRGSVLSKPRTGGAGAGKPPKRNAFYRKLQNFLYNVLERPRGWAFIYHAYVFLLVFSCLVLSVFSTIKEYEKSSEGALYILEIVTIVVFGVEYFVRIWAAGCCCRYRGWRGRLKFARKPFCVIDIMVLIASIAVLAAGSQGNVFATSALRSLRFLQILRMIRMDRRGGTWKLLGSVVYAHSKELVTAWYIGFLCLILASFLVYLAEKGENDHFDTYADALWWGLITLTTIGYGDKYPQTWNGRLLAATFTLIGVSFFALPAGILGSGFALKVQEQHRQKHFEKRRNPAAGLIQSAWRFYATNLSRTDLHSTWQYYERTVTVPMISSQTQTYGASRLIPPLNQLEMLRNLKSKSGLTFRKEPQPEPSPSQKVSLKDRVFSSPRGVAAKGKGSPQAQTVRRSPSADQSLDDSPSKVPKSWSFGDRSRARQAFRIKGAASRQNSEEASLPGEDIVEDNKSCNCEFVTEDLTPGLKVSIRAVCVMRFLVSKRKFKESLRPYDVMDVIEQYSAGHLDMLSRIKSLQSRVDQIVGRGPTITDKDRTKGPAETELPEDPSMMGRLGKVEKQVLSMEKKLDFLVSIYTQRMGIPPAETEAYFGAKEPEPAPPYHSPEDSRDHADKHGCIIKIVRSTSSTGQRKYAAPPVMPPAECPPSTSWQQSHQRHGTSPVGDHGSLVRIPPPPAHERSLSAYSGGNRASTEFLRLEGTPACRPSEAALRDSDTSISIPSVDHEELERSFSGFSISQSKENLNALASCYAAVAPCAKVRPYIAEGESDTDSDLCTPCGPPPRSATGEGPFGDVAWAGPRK
KCNQ2 enhance baseline – second read-out of KCNQ2 enhance, no call of its own (marks repeat the call); B-score; compound at 10 µM; measured here: initial fluorescence intensity artifact check;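 brightness before thallium and not channel activity; 0 = typical well and far values either way flag optical interference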
* = called active by the depositor. The list is partial. The share of hits here may be higher or lower than overall.

compound | KCNQ2 enhance | KCNQ2 enhance baseline
CN(C)CCCN(C(=O)c1ccc(S(=O)(=O)N(C)C)cc1)c1nc2cc3c(cc2s1)OCO3 | 1 | 1.3
CCCS(=O)(=O)N1CCCC(C(=O)NCCCN2CCCC2=O)C1 (configuration not stated) | 0.67 | -0.35
CCN1CCN(CCC(=O)Nc2ccc(F)c(F)c2)CC1 | 0.06 | 1.8
O=C(O)c1cccc([N+](=O)[O-])c1C(=O)Nc1cccc2ccccc12 | 0.87 | 0.38
Cc1ccc(NC(=O)CCCC2CCCCC2)c(O)c1 | 2.8 | -0.85
O=C(O)Cc1ccc(S(=O)(=O)Nc2ccccc2C(=O)O)cc1 | 0.86 | -1.8
Cc1ncoc1C(=O)Nc1ccc2c(c1)OCCO2 | 2.1 | 0.01
CC(=O)Cc1c(C(=O)O)c(C)nn1-c1ccccc1 | 0.81 | 0.28
Cc1c(CCO)c(=O)[nH]n1S(=O)(=O)c1ccc(Cl)cc1Cl | 0.26 | 2.2
Cc1ccc(NC2=CC(=O)CC(C)(C)C2)cc1Cl | 0.8 | -0.87
Cc1ccc(NC(=O)CC2Oc3ccccc3NC2=O)c(C)c1 (configuration not stated) | 0.28 | -1.2
Cc1ccc(OCc2cc(C(=O)N(C)Cc3cnc4ccccn34)no2)cc1C | 1.6 | -2.4
COc1cc(Nc2c3c(nc4ccccc24)CCCC3)cc(OC)c1OC | 0.75 | 0.71
Cc1cccc(Cn2c(C(C)(C)C)cc3cccnc32)c1 | 1.2 | -2.4
COc1ccc(C(N)CCc2ccco2)cc1 (configuration not stated) | 1.2 | -1.5
O=C(CCn1c(=O)oc2ccccc21)n1c(=O)oc2ccccc21 | 0.01 | 0.9
COc1ccccc1CCC(=O)OCC(=O)NC1CC1 | 0.27 | 0.96
O=C1NC(c2ccccc2)CCO1 (configuration not stated) | 0.29 | -2.6
Cc1c(C(=O)OCC(C)(C)CN(C)C)oc2ccccc12 | 0.85 | -1.9
S=C(NCc1cccnc1)Nc1cccc2ccccc12 | 0.3 | -0.01
CCCCOn1c(C)c(C(C)=O)c2c3no[n+]([O-])c3ccc21 | 0.04 | -0.41
OCC1(Cc2ccccc2)CCCN(Cc2ccc3c(c2)OCCO3)C1 (configuration not stated) | 0.98 | -0.42
Cc1ccc(S(=O)(=O)C2(C(=O)NC3CCCC3)CC2)cc1 | 1.3 | 1.6
CCOc1cc(C(=O)Nc2cc3c(cc2N2CCOCC2)n(C)c(=O)n3C)cc(OCC)c1OCC | 1.4 | 0.03
CCOc1ccc(-n2c(Cc3cc(=O)[nH]c(=O)[nH]3)nnc2SC(C)C(=O)OC)cc1 (configuration not stated) | 0.69 | 0.03
CC(=O)Nc1nnc(-c2ccc3c(c2)CCCC3)o1 | 1.9 | 0.32
CC(=O)NC(Cc1ccccc1)C(=O)N1CCN(C(=S)NCC(C)C)CC1 (configuration not stated) | 0.03 | -0.03
O=C(NCc1cccnc1)Nc1cccc(F)c1 | 0.16 | -0.01
COc1cccc(NC(=O)CN2C(=O)COc3ccc(C)cc32)c1 | 0.68 | -0.38
O=c1c2cnn(-c3ccc(F)cc3)c2ncn1Cc1ccc(F)cc1 | 0.2 | 2.7
CCOc1ccc(S(=O)(=O)NCCC(=O)N(C)CC(=O)Nc2ccc(OC)cc2)cc1 | 0.97 | 0.7
CCC(=O)N1CCc2cc(S(=O)(=O)CCC(=O)NCCc3ccc(S(N)(=O)=O)cc3)ccc21 | 1.2 | 0.03
CCOC(=O)N1CCc2c(sc(NC(=O)CN3CCN(C)CC3)c2C(=O)Nc2ccccc2)C1 | 0.29 | -0.7
COc1cc(OC)cc(C(=O)Nc2cc(-c3cn4cccnc4n3)ccc2C)c1 | 1.9 | -1.7
Nc1nc2ccccc2cc1S(=O)(=O)c1ccccc1 | 1.2 | 0.13
Cc1cccc(-n2c(N)c(C(=O)N3CCN(C)CC3)sc2=S)c1 | 0.71 | -0.89

Structures above that have fluorine (3):
compound | KCNQ2 enhance | KCNQ2 enhance baseline
CCN1CCN(CCC(=O)Nc2ccc(F)c(F)c2)CC1 | 0.06 | 1.8
O=C(NCc1cccnc1)Nc1cccc(F)c1 | 0.16 | -0.01
O=c1c2cnn(-c3ccc(F)cc3)c2ncn1Cc1ccc(F)cc1 | 0.2 | 2.7

Next part
compound | KCNQ2 enhance | KCNQ2 enhance baseline
CN(CC(=O)Nc1ccc(Cl)cc1)C(=O)CCc1ccccc1 | 1.1 | 0.14
O=C(c1ccc(OC2CCN(C/C=C/c3ccccc3)CC2)cc1)N1CCCCC1 | 0.97 | -0.34
Cc1ccc(Cn2c(SCCN3CCCCC3)nc3c2c(=O)[nH]c(=O)n3C)cc1 | 0.67 | 0.27
O=C(Nc1nc(-c2ccccc2)cs1)c1cccc([N+](=O)[O-])c1 | 1.7 | -2.7
CCC(=O)N1CCc2cc(S(=O)(=O)CCC(=O)Nc3ccc(F)c(F)c3)ccc21 | 1.7 | 0.4
CCC(C)NC(=O)CSc1nc(-c2cccs2)cc(C(F)(F)F)n1 (configuration not stated) | 0.25 | 0.07
Cc1ccnc(NC(=O)COC(=O)C2COc3ccccc3O2)n1 (configuration not stated) | 0.12 | 2.2
O=C(NCc1ccccc1)c1ccc(=O)[nH]n1 | 1.6 | 0.04
CCCn1c(N)c(C(=O)CSc2nnnn2-c2ccc(O)cc2)c(=O)n(C)c1=O | 0.4 | 0.62
C=C(C)CSc1nnc(-c2ccc(C)cc2)n1N | 0.02 | -0.76
O=C(CCc1ccccc1)Nc1cc(NC(=O)CCc2ccccc2)cc(C(=O)O)c1 | 0.53 | -0.03
COc1cccc(C2c3c(oc4ccccc4c3=O)C(=O)N2CCCN(C)C)c1OC (configuration not stated) | 0.47 | 0.99
COc1ccc(OC(=O)c2cc3cc(Cl)ccc3oc2=O)cc1 | 0.01 | -0.56
COc1ccc(CC(C(=O)Nc2cccc(F)c2)c2nn[nH]n2)c(OC)c1 (configuration not stated) | 1 | 0.17
CCN1CCN(C(=O)c2cc3cc([N+](=O)[O-])ccc3oc2=O)CC1 | 3 | -0.84
CN(CC(=O)Nc1ccc(F)c(F)c1F)C(=O)C1CCCO1 (configuration not stated) | 1.6 | -1
COc1ccc2c(C)c(CCC(=O)NC3CC3)c(=O)oc2c1C | 1.1 | 0.3
COc1cccc(NC(=O)COc2ccccc2C(N)=O)c1 | 0.15 | -0.01
O=C1NC(=O)C(Cc2c[nH]c3ccccc23)N1 (configuration not stated) | 2.4 | -0.76
CCOC(=O)c1[nH]c2ccc(OC)cc2c1NC(=O)CN1CCC2(CC1)OCCO2 | 1.5 | -0.63
CCOc1ccc2nc(SCC(=O)NC3CC3)sc2c1 | 0.59 | -0.97
N#Cc1ccc(C(=O)CSc2n[nH]c(=O)n2-c2cccnc2)cc1 | 1.8 | -0.44
CCOC(=O)C1=C(C)C2C3C(=O)N(c4ccccc4C)C(=O)C3C1(C)C1C(=O)N(c3ccccc3C)C(=O)C21 (configuration not stated) | 0.95 | 0.36
Cc1cc(-c2nc3ccccc3o2)c2ccccc2n1 | 0.57 | 0.38
c1ccc2c(CN3CCOCC3)c3ccccc3c(CN3CCOCC3)c2c1 | 0.19 | -0.63
CC(=O)C1=NOC(CNC(=O)c2c(-c3ccccc3Cl)noc2C)C1 (configuration not stated) | 0.01 | 0.3
O=C(COC(=O)/C=C/c1ccc(C(F)(F)F)cc1)NC1CCCC1 | 0.12 | 0.23
Cc1ccc(S(=O)(=O)N2CCN(C(C)CC(=O)O)CC2)cc1 (configuration not stated) | 0.16 | -0.33
CCOC(=O)c1cc(-c2ccccc2)nn1CC1CC(c2cccnc2)=NO1 (configuration not stated) | 0.72 | 0.78
CCC(NC(=S)NCc1ccc(F)cc1)c1ccc(C)cc1 (configuration not stated) | 3.4 | -0.02
CCOc1ccc(N(CC(=O)NC2CCCCC2)C(=O)CNC(=O)c2ccco2)cc1 | 1.6 | -1
O=C(O)CCCC(=O)Nc1ccc(Br)cc1 | 0.05 | 0.07
CCCNc1c(NS(=O)(=O)c2ccc(NC(=O)CC)cc2)c(=O)oc2ccccc12 | 1.9 | 0.79
CC(C)n1cc(/C=C(\C#N)S(=O)(=O)c2ccccc2)c2ccccc21 | 0.03 | -0.09
CCOC(=O)c1[nH]c(C)c(C(=O)NCc2ccccn2)c1C | 0.64 | -0.11
CCCOc1ccc2[nH]cc(C(=O)O)c(=O)c2c1 | 0.07 | -0.02
Cc1cc(C)c2c(=O)[nH]c(SCC(=O)Nc3ccc(N(C)C)cc3)nc2n1 | 0.36 | 0.68
CCc1ccc(C2=C/C(=C/c3cccnc3)C(=O)O2)cc1 | 0.81 | -0.86
CC1=NN(c2ccc(S(=O)(=O)O)cc2Cl)C(=O)C1 | 0.68 | -1.7
CC(C)Oc1ccc(CSC(=N)N)cc1 | 1.1 | -0.01
CCOc1ccc(CC(=O)NC2CCN(Cc3ccccc3)CC2)cc1 | 0.79 | -0.23
C[C@@H](CN=[N+]=[N-])CN1CC[C@H](NC(=O)OCc2ccccc2)CCC1=O | 0.54 | 1
COC(=O)c1ccc(C2c3[nH]c4ccccc4c3C[C@H]3C(=O)N(C4CCN(Cc5ccccc5)CC4)CC(=O)N23)cc1 (some centres not stated) | 0.27 | 0.5
CCOc1ccccc1CN1CCN(CC2=Cc3cc(OC)ccc3OC2)CC1CCO (configuration not stated) | 0.58 | -0.58
O=C(COC(=O)c1ccc2ccccc2n1)c1ccc(F)cc1 | 0.91 | 0
CC(=O)NCCN1C(=O)S/C(=C\c2cccs2)C1=O | 0.7 | -0.27
N/C(=N\OC(=O)c1ccc(Cl)cc1Cl)c1ccccn1 | 0.5 | -0.88
CCN(CC)C(=O)CN(c1cc(Cl)ccc1OC)S(C)(=O)=O | 0.01 | 0.03
OCCC1CN(Cc2cc3ccccc3o2)CCN1Cc1ccc(F)cc1 (configuration not stated) | 0.3 | -4
CN(C)c1ccc(C(=O)Nc2nnc(C3=COCCO3)o2)cc1 | 2.6 | 1.5
Cn1ccnc1SCC(=O)Nc1ccc(Br)cc1C(F)(F)F | 0.94 | 0.87
C=CCn1c(=O)c2ccc(C(=O)NCc3ccccc3)cc2n(Cc2ccc(Cl)cc2)c1=O | 0.33 | 0.79
COc1ccc(OC)c(NC(=O)c2sc3nc(Cc4ccccc4)cc(C(F)(F)F)c3c2N)c1 | 0.29 | 0.92
Cc1ccc(C(=O)NC(=S)NCCCN2CCOCC2)cc1 | 1.4 | -1.4
Cc1c(C(=O)N2CC(C)OC(C)C2)[nH]c2ccc(Br)cc12 (configuration not stated) | 1.2 | 2
O=c1c2ccc(Cl)cc2[nH]c(=S)n1CCC1=CCCCC1 | 8.7* | 0.01*
CCN1CCN(C(=O)c2nn(-c3ccc(C)cc3)c(=O)c3c2c2ccccc2n3C)CC1 | 0.24 | 1.3
O=C(O)CCC(=O)Nc1nc2ccc([N+](=O)[O-])cc2s1 | 0.45 | 0.34
O=C1NC(N2CCOCC2)=N/C1=C/c1ccc2c(c1)OCO2 | 0.04 | -1.2
CSCCC1NC(=O)N(CC(=O)Nc2cccc3ccccc23)C1=O (configuration not stated) | 1 | -0.01

Continuation:
compound | KCNQ2 enhance | KCNQ2 enhance baseline
Cc1cc(C(=O)Nc2ccccc2C(=O)O)ccc1NC(=O)COc1cccc([N+](=O)[O-])c1 | 1.6 | 0.81
Cc1ccnc(NS(=O)(=O)c2cccc3nsnc23)c1 | 0.64 | -0.21
S=c1[nH]nc(-c2ccc3c(c2)OCO3)n1-c1ccccc1 | 1.1 | -1.9
CCCCNC(=O)N1CCN(c2ncccn2)CC1 | 0.65 | 0.76
O=S(=O)(c1cccc(Cl)c1Cl)N1CCCCC1 | 0.36 | -0.93
O=C1c2ccccc2C(Nc2ccc(S(=O)(=O)N3CCOCC3)cc2)N1c1cccnc1 (configuration not stated) | 0.07 | 0.59
CNc1nc2ccccc2n1CC(=O)c1ccccc1 | 0.86 | 2.4
O=C(O)C1=C[C@H](C2CC2)C[C@H](OCCCCO)O1 | 0.43 | -0.06
CCC1(C)Cc2c(sc3nc4n(c(=O)c23)CCCS4)CO1 (configuration not stated) | 0.57 | 0.99
O=C(c1ccc(Br)cc1)c1cc2ccc(O)cc2oc1=O | 0.08 | -0.21
CC(C)(C)c1ccc(C(=O)N/N=C/c2ccc(OCCCF)cc2)cc1 | 1.2 | -1.3
CCN(Cc1ccccc1)C(=O)c1ccccc1C | 0.41 | 0.52
O=C(Cc1ccc(Cl)cc1)NCCc1c[nH]c2ccccc12 | 0.02 | -0.62
CN1c2ccccc2N(C)C1(C)c1ccccc1 | 0.12 | -2
COc1cc([N+](=O)[O-])cc(/C=N/NC(=O)C(C)Nc2ccccc2C)c1O (configuration not stated) | 3.5 | -1.4
CCOc1ccc2nc(N3C(=O)/C(=C/c4ccccc4)NC3=S)sc2c1 | 20* | 0.3*
O=c1c2c(-c3ccccc3)csc2ncn1/N=C/c1cccc([N+](=O)[O-])c1O | 0.74 | 0.15
COCCn1c(=NC(=O)c2ccc(S(=O)(=O)N3CCCc4ccccc43)cc2)sc2cc(S(C)(=O)=O)ccc21 | 0.09 | 0.35
